# From PubChem
# HCMV NEC inh: disrupts HCMV UL50-UL53 complex binding. HTRF UL50-UL53 interaction, normalized percent inhibition. inhibition, % (no concentration beside the values). actives 0.15% (n = 190,000);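 active means both replicates at 50% or more, plus weaker picks with an unusually low signal ratio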;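 further: stock transfer was 100 nL into about 20 µL; 0% = negative control wells and 100% = wells with untagged competitor protein; inactives centre near -12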
# GIV-Gai inh: GIV-Galpha-i interaction inhibition. P08753. Galpha-i3/FITC-GIV peptide fluorescence polarization, 90 min; stronger effect = lower value; scaled: aluminum fluoride 0%, vehicle 100%. percent of control (FP), % (no concentration beside the values). actives 0.42% (n = 210,000);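 active means replicate mean at 85% of control or lower, very high polarization wells dropped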;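 further: wells of about 15 µL received 100 nL stock; the first replicate is given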
# Target sequence (P08753 whole entry, looked up): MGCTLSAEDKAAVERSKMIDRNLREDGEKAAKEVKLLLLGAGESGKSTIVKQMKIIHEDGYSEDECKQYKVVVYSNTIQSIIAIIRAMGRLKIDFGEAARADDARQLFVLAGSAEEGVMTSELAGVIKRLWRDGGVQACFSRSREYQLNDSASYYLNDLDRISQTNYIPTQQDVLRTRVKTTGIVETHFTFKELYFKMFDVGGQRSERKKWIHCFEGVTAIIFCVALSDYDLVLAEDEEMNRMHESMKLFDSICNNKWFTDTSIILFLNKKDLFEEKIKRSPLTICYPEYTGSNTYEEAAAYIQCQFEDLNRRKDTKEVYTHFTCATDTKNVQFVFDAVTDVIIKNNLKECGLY
# Sa growth inh: blocks Staphylococcus aureus growth | AID 720641 | S. aureus RN4220 growth, OD600, 20 h, 42 °C; stronger effect = lower value | actives 0.53% (n = 170,000) | relative growth, % (test concentration not listed);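 active means growth at 42 °C up to 50% and 20 or more points under that at 30 °C, or under 10% at both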;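 further: 300 nL library stock went into each well; scaled to the means of positive and negative controls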
# Sa growth inh second temp: also measured in Sa growth inh; calls as there; relative growth, %; measured here: growth at 30 °C;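 optical density after 20 h as mean of two plates; 100% = untreated growth and lower means inhibition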
# * hit, by the source's call; x = not tested or not shown; & = joins results of further samples.
# Field names: A = HCMV NEC inh; B = GIV-Gai inh; C = Sa growth inh; D = Sa growth inh second temp
CC(C)(CO)C(O)C(=O)NC1CCCCC1 (stereo unspecified)
  A: 9	B: 111	C: 98	D: 105
COc1ccc(NC(C)=O)c(C(=O)O)c1
  A: -10	B: 95	C: 113	D: 94
COc1ccc(S(=O)(=O)N(C)C)cc1-c1noc(C)n1
  A: -17	B: 107	C: x	D: x
Cc1nc(NCc2ccccc2Cl)c2onc(-c3ccc(Cl)cc3)c2n1
  A: -21	B: 90	C: x	D: x
CC1C(c2ccccc2)OC(c2ccccc2O)N1C (stereo unspecified)
  A: -38	B: 104	C: 80	D: 59
Nc1ccc(C(=O)Nc2ccc3nc(-c4cccnc4)[nH]c3c2)cc1
  A: -8	B: 97	C: 70	D: 111
CS(=O)(=O)c1nnnn1-c1cccc2ccccc12
  A: -24	B: 106	C: 81	D: 77
CC1CCc2nc(SC3CC(=O)C4OCC3O4)nc(C(F)(F)F)c2C1 (stereo unspecified)
  A: 4	B: x	C: 69	D: 97
CCC1(C)NC(=O)N(/N=C/c2cc(C)n(-c3cccc(S(=O)(=O)N4CCOCC4)c3)c2C)C1=O (stereo unspecified)
  A: -13	B: x	C: 97	D: 92
Cc1ccc(C)c(Cc2cc(Cl)ccc2Cl)c1
  A: -5	B: x	C: 101	D: 100
CCN1c2ccccc2-c2nc(SCC(=O)Nc3cc(C)c(Cl)cc3OC)ncc2S1(=O)=O
  A: x	B: 105	C: 82	D: 84
CCN(CC)C(=O)CS(=O)(=O)Cc1nc(-c2cccc(OC)c2)oc1C
  A: -14	B: 106	C: 81	D: 85
Cc1cccc(C(=O)NCC(=O)NN)c1
  A: -22	B: 102	C: 88	D: 84
CCOc1ccc(NC2=CC(=O)CCC2)cc1
  A: x	B: 103	C: 112	D: 79
CC(C)C(=O)N(c1ccccc1)C1C=CS(=O)(=O)C1 (stereo unspecified)
  A: x	B: 96	C: 100	D: 94
COc1cccc(OC)c1C(=O)NCCc1csc2nc(-c3ccccc3C)nn12
  A: -26	B: 104	C: x	D: x
CCC(=O)N1CCc2cc(S(=O)(=O)NCCC(=O)Nc3cccc(C)c3C)ccc21
  A: -11	B: 106	C: 89	D: 100
O=C(Cn1cc(S(=O)(=O)c2ccc(Cl)cc2)c(=O)c2ccccc21)Nc1ccc2c(c1)OCO2
  A: -27	B: 102	C: 106	D: 78
COc1ccccc1C(=O)Nc1c(C(=O)N(C)Cc2ccccc2)sc2nc(C)c(Cl)c(C)c12
  A: -33	B: 108	C: 93	D: 74
CNC(=O)Nc1ccc(C2SCCS2)cc1
  A: -30	B: 103	C: 114	D: 84
O=C(Nc1cccc(Cl)c1)C1CCCN(c2nc3cccnc3n(Cc3ccccc3)c2=O)C1 (stereo unspecified)
  A: -3	B: 109	C: x	D: x
CN(c1ccc2c(c1)OCO2)S(=O)(=O)c1ccsc1-c1nc(-c2ccc(Cl)cc2)no1
  A: -22	B: 104	C: x	D: x
CSc1ncc(C(=O)NCc2ccc(F)cc2)c(C(F)(F)F)n1
  A: -25	B: 105	C: 98	D: 96
Cc1cccc(C(C)C)c1NC(=O)CSc1ncnc2ccccc12
  A: -34	B: x	C: 121	D: 83
COC(=O)c1ccc(C2c3c(oc4ccc(F)cc4c3=O)C(=O)N2CCCN(C)C)cc1 (stereo unspecified)
  A: x	B: 101	C: 91	D: 95
COc1ccc(-c2ccc(OC)cc2C#N)cc1
  A: 5	B: 106	C: 111	D: 103
N#CCc1c(C#N)c(N)nc(NCc2ccccc2)c1C#N
  A: -17	B: x	C: 112	D: 94
Cc1ccc(C2C(=O)N(C3CCCCCC3)CC(=O)N2C2CCCCC2)cc1 (stereo unspecified)
  A: 7	B: 109	C: 107	D: 106
CCc1ccccc1NC(=O)CCn1nc(C)c2c(C)n(-c3ccccc3)nc2c1=O
  A: x	B: 102	C: 97	D: 93
Cc1ccc(-c2nc3ccc(Cl)cn3c2Nc2ccc3c(c2)OCCO3)o1
  A: -11	B: 107	C: 83	D: 85
NC(=O)c1ccccc1Oc1ccc(Cl)cc1Cl
  A: -11	B: 102	C: 108	D: 93
Cc1ccc2cc3c(nc2c1)N(S(=O)(=O)c1ccccc1)CC3
  A: 6	B: 107	C: x	D: x
COc1ccc(S(=O)(=O)NCCN2CCOCC2)cc1-c1nnc2c3ccccc3c(C)nn12
  A: x	B: 102	C: 102	D: 83
COc1ccc(C(=O)N2CCC(N3CCN(Cc4ccccc4)C3=O)CC2)cc1OC
  A: -20	B: 109	C: x	D: x
Cc1ccc(C2=NN(C(=O)CCC(=O)O)C(c3ccccc3F)C2)cc1 (stereo unspecified)
  A: -29	B: 105	C: x	D: x
Nn1c(COc2ccccc2)nnc1SC(F)F
  A: -8	B: 100	C: 101	D: 90
CCOC(=O)C1CCN(Cc2cccc(NC(=O)c3cccs3)c2)CC1
  A: -1	B: 98	C: 97	D: 97
O=C(CN1C(=O)C2CCCCN2c2ccc(C(=O)N3CCCC3)cc21)NCc1ccccc1F (stereo unspecified)
  A: x	B: 102	C: 99	D: 83
CNCCNS(=O)(=O)c1cccc2cnccc12
  A: -32&-25	B: 96	C: x	D: x
Cc1ccc2ccc3cc(C(=O)N4CCN(C)CC4)nc3c2[nH]1
  A: 0	B: 102	C: x	D: x
CCOC(=O)c1nn(-c2ccccc2C)c(=O)cc1NCCC(c1ccccc1)c1ccccc1
  A: -29	B: 97	C: x	D: x
Cc1ccc(C)c(S(=O)(=O)c2cn(Cc3ccccc3)c3cc(F)c(F)cc3c2=O)c1
  A: -18	B: 111	C: 115	D: 83
CC(C)N(C(=O)Cn1ccc(=N)c2ccccc21)C(C)C
  A: x	B: 98	C: 89	D: 96
O=C(NCCn1c(CCc2ccccc2)nc2cccnc21)c1ccc2c(c1)OCO2
  A: -1	B: 105	C: x	D: x
COc1cccc(C(=O)N2CCC(N3CCN(Cc4ccc(F)cc4)C(=O)C3=O)CC2)c1
  A: -29	B: 100&102	C: 89	D: 88
COc1cccc2sc(NS(=O)(=O)CS(=O)(=O)Nc3nc4c(OC)cccc4s3)nc12
  A: -13	B: 98	C: 106	D: 101
COCc1nnc(NC(=O)c2ccccc2OCc2nc(-c3ccc(C)cc3)no2)s1
  A: -18	B: 100	C: x	D: x
C=Cc1ccc(Cn2nc3n(Cc4ccc(F)cc4)c(=O)c4ccccc4n3c2=O)cc1
  A: -24	B: 101	C: x	D: x
COc1cc(OC)c(NC(=O)C(Cc2ccccc2)NS(=O)(=O)c2cccc3nsnc23)cc1Cl (stereo unspecified)
  A: -35	B: 107	C: 100	D: 91
Cc1cccn2c(=O)cc(CSc3nnc(NC(=O)c4ccc(F)cc4)s3)nc12
  A: x	B: 102	C: 85	D: 90
Cc1[nH]c2ccccc2c1C1CC(=O)NC1=O (stereo unspecified)
  A: -15	B: 103	C: 108	D: 83
CC(=O)c1ccc(NC(=O)COc2ccccc2-c2nc(C(C)C)no2)cc1
  A: -29	B: 100	C: 94	D: 82
COC(=O)C(C)n1cnc2c(cnn2-c2ccccc2)c1=O (stereo unspecified)
  A: 2	B: 105	C: 107	D: 77
COC(=O)CSc1nnc(-c2ccncc2)n1-c1ccc(OC)cc1
  A: x	B: 99	C: 96	D: 82
COc1ccc(Cl)cc1C(=O)Nc1ccc(F)cc1F
  A: 11	B: x	C: 70	D: 95
Cc1csc2c(NC(C)C)ncnc12
  A: 8	B: 104	C: 106	D: 101
COc1ccc(-n2ncc(C(=O)N3CCCCC3)c2C)cc1
  A: -3	B: 109	C: 108	D: 97
O=C1c2cccc3cccc(c23)C(=O)N1CC1CCN(CC(O)COc2ccc(F)cc2)CC1 (stereo unspecified)
  A: -36	B: 97	C: x	D: x
Cn1c(=O)c2ccc(C(=O)NC3CCCC3)cc2n2c(SCC(=O)c3ccccc3)nnc12
  A: -24	B: 106	C: x	D: x
Cc1ccccc1CN(C)C(=O)[C@H](Cc1ccccc1)NC(=O)c1ccco1
  A: -16	B: x	C: 105	D: 92

# An excerpt from further up, as a working copy:
# Field names: A = HCMV NEC inh; B = GIV-Gai inh; C = Sa growth inh; D = Sa growth inh second temp
CCc1ccccc1NC(=O)CCn1nc(C)c2c(C)n(-c3ccccc3)nc2c1=O
  A: x	B: 102	C: 97	D: 93
Cc1ccc(-c2nc3ccc(Cl)cn3c2Nc2ccc3c(c2)OCCO3)o1
  A: -11	B: 107	C: 83	D: 85
NC(=O)c1ccccc1Oc1ccc(Cl)cc1Cl
  A: -11	B: 102	C: 108	D: 93
Cc1ccc2cc3c(nc2c1)N(S(=O)(=O)c1ccccc1)CC3
  A: 6	B: 107	C: x	D: x
COc1ccc(S(=O)(=O)NCCN2CCOCC2)cc1-c1nnc2c3ccccc3c(C)nn12
  A: x	B: 102	C: 102	D: 83
COc1ccc(C(=O)N2CCC(N3CCN(Cc4ccccc4)C3=O)CC2)cc1OC
  A: -20	B: 109	C: x	D: x
Cc1ccc(C2=NN(C(=O)CCC(=O)O)C(c3ccccc3F)C2)cc1 (stereo unspecified)
  A: -29	B: 105	C: x	D: x
Nn1c(COc2ccccc2)nnc1SC(F)F
  A: -8	B: 100	C: 101	D: 90
CCOC(=O)C1CCN(Cc2cccc(NC(=O)c3cccs3)c2)CC1
  A: -1	B: 98	C: 97	D: 97
O=C(CN1C(=O)C2CCCCN2c2ccc(C(=O)N3CCCC3)cc21)NCc1ccccc1F (stereo unspecified)
  A: x	B: 102	C: 99	D: 83
CNCCNS(=O)(=O)c1cccc2cnccc12
  A: -32&-25	B: 96	C: x	D: x
Cc1ccc2ccc3cc(C(=O)N4CCN(C)CC4)nc3c2[nH]1
  A: 0	B: 102	C: x	D: x
CCOC(=O)c1nn(-c2ccccc2C)c(=O)cc1NCCC(c1ccccc1)c1ccccc1
  A: -29	B: 97	C: x	D: x
Cc1ccc(C)c(S(=O)(=O)c2cn(Cc3ccccc3)c3cc(F)c(F)cc3c2=O)c1
  A: -18	B: 111	C: 115	D: 83
CC(C)N(C(=O)Cn1ccc(=N)c2ccccc21)C(C)C
  A: x	B: 98	C: 89	D: 96
O=C(NCCn1c(CCc2ccccc2)nc2cccnc21)c1ccc2c(c1)OCO2
  A: -1	B: 105	C: x	D: x
COc1cccc(C(=O)N2CCC(N3CCN(Cc4ccc(F)cc4)C(=O)C3=O)CC2)c1
  A: -29	B: 100&102	C: 89	D: 88

# Going on with the list:
# Field names: A = HCMV NEC inh; B = GIV-Gai inh; C = Sa growth inh; D = Sa growth inh second temp
O=c1c2c(nc(NCCO)n1-c1ccccc1)-c1ccccc1CC21CCCCC1
  A: -7	B: 100	C: 115	D: 122
CCOC(=O)c1c(NC(=O)CSc2nnc3cc(C)c4cccc(C)c4n23)sc(C)c1C
  A: -16	B: 98	C: x	D: x
CCOC(=O)c1nc(Nc2ccccc2)c2ccccc2n1
  A: -52	B: 101	C: 102	D: 74
Cc1[nH]n(-c2ccccc2)c(=O)c1C=NCc1ccncc1
  A: -19	B: x	C: 86	D: 97
CN(C)c1ccc(NC(=O)CCCc2ccccc2)cc1
  A: -2	B: 105	C: 109	D: 78
COc1cc(OC)c(NC(=O)N(C)CCc2c(C)nn(C)c2C)cc1Cl
  A: 3	B: 105	C: x	D: x
COCCn1c(O)c(C=NCc2nc3ccccc3n2C)c(=O)[nH]c1=S
  A: -13	B: x	C: 83	D: 91
O=C(Nc1ccc(F)cc1F)c1cc(-c2ccc(Cl)cc2)on1
  A: 10	B: 105	C: 109	D: 96
O=C(O)C1CCN(S(=O)(=O)c2ccc(C(F)(F)F)cc2)CC1
  A: -8	B: 101	C: 100	D: 90
COC(=O)Cc1nc(N2CCC(C)CC2)c2c3c(sc2n1)CCCC3
  A: 11	B: 103	C: 94	D: 79
O=C1COc2ccccc2N1Cc1ccccc1
  A: -2	B: 96	C: 100	D: 70
CCNC(=S)NS(=O)(=O)c1ccccc1
  A: -3	B: 97	C: 97	D: 99
CCOc1ccc(NC(=O)CN2C(=O)C3(OCCCO3)c3ccccc32)cc1
  A: x	B: 95	C: 102	D: 89
COc1cccc(S(=O)(=O)NCC(=O)N2CCCCC2C)c1 (stereo unspecified)
  A: -4	B: 100	C: 100	D: 106
Cc1ccc2nc(C3=C(O)CN(c4ccc(Nc5ccccc5)cc4)C3=N)[nH]c2c1
  A: -11	B: 107	C: x	D: x
Cc1cccc(NC(=O)CSc2nnc3[nH]c(=O)cc(-c4ccccc4)n23)c1C
  A: x	B: 97	C: 128	D: 97
O=C1c2ccccc2C(=O)N1CCN1CCCCC1
  A: -18	B: x	C: 107	D: 57
CCC1(CC)Cc2ccccc2C(N)=C1C#N
  A: -33	B: 104	C: 122	D: 115
C=CCn1c(C)cc(C(=O)COC(=O)c2ccc(S(=O)(=O)N3CCCC3)cc2)c1C
  A: -14	B: x	C: 97	D: 97
Cc1cc2nn(-c3ccc(F)cc3)nc2cc1NC(=O)c1cccc2ccccc12
  A: -18	B: 106	C: 95	D: 87
O=C(NCc1ccccc1)c1cnc2n(c1=O)CCS2
  A: 6	B: 106	C: 98	D: 97
Cc1nn(-c2ccccc2)c(C)c1-c1nc2ccccc2[nH]c1=O
  A: -53	B: x	C: 105	D: 94
CCN(CC)S(=O)(=O)c1cc(-c2nn(C)c(=O)c3ccccc23)ccc1C
  A: x	B: 107	C: 106	D: 76
